CDC25B CDK2 inh: human CDC25B-CDK2/CyclinA binding inhibition; z-score (no concentration beside the values); 94,000 tested, 0.72% active; HTRF CDC25B-CDK2/CyclinA binding, anti-His/anti-Flag; hits give high values;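 note: score is relative to mean and SD of negative controls; strong numbers were not always called active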
HIV TAR-Tat: HIV-1 TAR-Tat binding disruption | HIV-1 TAR RNA, Tat peptide displacement FRET; hits give high values | z-score (test concentration not listed) | 100,000 tested, 0.6% active;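 note: score is relative to mean and SD of negative controls; some compounds called inactive have numbers as strong as hits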
* = called active by the depositor; . = not tested or not shown.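 Rule for the calls: active = z-score from 3 up in half or more of its runs; inactive = the rest.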 An unsorted share of the library; overall some 0.9% were active at least once.

SMILES	CDC25B CDK2 inh	HIV TAR-Tat
CCn1nc(C)c(CNS(=O)(=O)c2ccc(C(C)(C)C)cc2)c1C	.	-0.31
O=C(c1noc2c1COc1ccccc1-2)N1CCN(Cc2ccc3c(c2)OCO3)CC1	-0.68	1.68
O=C(Cc1c(O)c2ccccc2[nH]c1=O)NCCO	.	2.2
CC1(C)CC(=O)C2=C(C1)Nc1nc(SCc3ccccc3)nn1C2c1cccnc1 (configuration not stated)	-0.43	-0.17
C=CCC(O)(c1ccc(OC)cc1)C(CN1CCCC1)c1ccccc1 (configuration not stated)	0	-1.19
N#Cc1ccccc1CSc1nnc(N)s1	0.95	.
CN(CC(=O)Nc1cccc(F)c1)S(=O)(=O)c1ccc2c(c1)CCC(=O)N2	-0.22	.
Fc1ccc(Nc2nc(-c3ccccc3)no2)cc1	.	2.1
CCOc1ccc(NC(=O)CCS(=O)(=O)c2ccc3c(c2)CC(C)N3C(=O)C2CC2)cc1 (configuration not stated)	.	-0.52
Cc1ccc(Cl)cc1N1CCN(c2ncnc3nc[nH]c23)CC1	-2.48	-0.65
C[C@@H]1[C@H](O)[C@@H](C)/C=C/C=C/C=C/C=C/C=C/C=C/C=C/[C@H](O[C@@H]2O[C@H](C)[C@@H](O)[C@H](N)[C@@H]2O)C[C@@H]2O[C@](O)(C[C@H](O)C[C@H](O)[C@@H](O)CC[C@H](O)C[C@H](O)CC(=O)O[C@H]1C)C[C@H](O)[C@H]2C(=O)O	.	0.65
Cc1ccccc1OCc1nn2c(-c3ccccc3)nnc2s1	-0.5	-5.84
Cc1nnc2c3ccccc3nc(Nc3ccc(Br)cc3)n12	.	0.14
Cn1c(=O)n(Cc2ccc(F)cc2)c(=O)c2c1nc1n2CCN1c1ccc(Cl)cc1	.	1.91
CCOc1cc(C(F)(F)F)cnc1C#N	-1.76	.
CCCOc1ccc(Oc2nc(NCC(C)C)nc(N3CCOCC3)n2)nn1	-2.69	-0.93
Cc1ccccc1OC1C(=O)N(CC2CCCO2)C1c1ccc2c(c1)OCO2 (configuration not stated)	0.71	-0.27
Oc1ccc(/C=C/c2nc(-c3ccccc3O)n(-c3ccccc3)n2)cc1	-0.93	.
CN(C)c1ccc(CN(CC2CCCO2)C(=O)c2ccc(Cl)cc2)cc1 (configuration not stated)	-0.03	0.75
CCn1c2ccc(C)cc2c2nc(C)sc21	0.88	.
CC1CN(C(=O)Nc2ccc(Cl)cc2)c2cc(Cl)ccc2O1 (configuration not stated)	-1.33	1.55
CC1CCCCN1c1nnc(NC(=O)c2csc3c2CCCC3)s1 (configuration not stated)	0.65	1.46
O=C(COC(=O)c1cccs1)c1ccc(Cl)cc1	16.9*	.
O=C1C2ON(c3ccccc3)C(c3ccco3)C2C(=O)N1Cc1ccccc1 (configuration not stated)	-0.94	0.68
COc1ccc(N(CC(O)CN2C(=O)NC(C)(C)C2=O)S(=O)(=O)c2ccccc2)cc1 (configuration not stated)	-2.82	.
Cc1ccc2c(c1)-c1c(cnc3cc(-c4ccccc4)nn13)CO2	0.54	1.21
COCCCNC(=O)CCCN1C(=O)CCn2nc(-c3cccn3C)cc21	.	-0.19
O=C(Cn1ncc2c1-c1ccccc1OC2)N1CCCc2ccccc21	-1.05	1.97
CCN1CCN(c2nc(NCCc3cccs3)c3cnn(C)c3n2)CC1	.	1.84
Cc1nn(CC(=O)NC2CC2)c(=O)c2cc3cc(F)ccc3n12	-0.84	0.92
C=CCOC(=O)C1C(c2ccc(CC)cc2)c2c([nH][nH]c2=O)CC1(C)O (configuration not stated)	0.5	14.9
Cn1cccc1C(=O)NS(=O)(=O)c1ccccc1Cl	0.01	1.06
COc1cc(C2N3CCCN2CC3)ccc1OCc1ccccc1 (configuration not stated)	-1.47	-0.57
CCC(C)NC(=O)C1CCC(CNc2c(N3CCCC3)c(=O)c2=O)CC1 (configuration not stated)	-2.8	.
COC(=O)c1cc2c(cc1NC(=O)c1cc3c(s1)-c1ccccc1OC3)OCO2	-1.15	-0.02
NC(N)=N/C(N)=N/c1nc(-c2ccc(Cl)cc2)cs1	-2.03	.
O=C(C1CCCN1S(=O)(=O)c1cccc2nsnc12)N1CCN(c2ccc(Cl)cc2)CC1 (configuration not stated)	-0.39	-1.1
COc1ccccc1Nc1nc(C2(C)CC3(CC(C)(C)OC3=O)C(=O)O2)cs1 (configuration not stated)	-0.69	.
O=C(Nc1ccccc1Cl)C1CCCN(c2ncnc3c2nc2n3CCCCC2)C1 (configuration not stated)	.	-0.07
Cc1cccc(CN2CCc3c(Br)cccc3C2)c1	-1.61	-0.6
CCCc1cc(=O)n2nc(N3CCC(C(=O)Nc4cc(F)ccc4F)CC3)sc2n1	-1	0.32
COc1ccc2nsnc2c1	-1.25	.
O=C(c1ccc2c(c1)OCCO2)N(Cc1cccnc1)c1nc2c(Cl)cccc2s1	.	0.25
CCCCc1nnc(SCc2cc(=O)c3cc(F)ccc3[nH]2)n1C	.	-0.25
O=C(O)c1nc(N2CCCCC2)c2c(-c3ccccc3Cl)noc2n1	-0.75	1.73
CC(C)c1ccc(C(=O)CC2(O)C(=O)N(C(C)C)c3ccccc32)cc1 (configuration not stated)	1.37	-0.34
C=CCN(c1nccs1)S(=O)(=O)c1ccc(C)cc1	-1.1	-0.21
COCc1c(Br)c(C)nc2sc3c(=O)n(-c4ccccc4C(=O)OC)nnc3c12	0.37	-0.36
COc1ccc(S(=O)(=O)NNC(=O)c2ccc(N(C)C)cc2)cc1OC	-1.2	.
COc1ccccc1NC(=O)NC1CCN(c2nc3ccccc3s2)CC1	-0.54	0.19
COc1ccc(NC(=O)COCC(=O)O)c(N2CCOCC2)n1	-1.8	.
CCCNC(=O)c1cc2n(n1)CC(C)(C(=O)NC1CCCC1)N(CCC)C2=O (configuration not stated)	.	1.81
CCCc1nc2nc(C)c(NS(=O)(=O)c3ccc(C)cc3)c(=O)n2[nH]1	-0.74	2.06
Cc1nc(NCCCN(C)C)c2c3c(sc2n1)CCCC3	.	1.19
CC12CCC(C1)C(C)(C)C2NC(=O)c1cccs1 (configuration not stated)	-2.26	.
COc1ccc(-c2nc(-c3cccnc3)no2)cc1	-1.97	0.5
COc1ccc(Oc2cccc(F)c2C#N)cc1	-1.48	.
COC(=O)C1CCN(S(=O)(=O)c2cc3c4c(c2)C(C)C(=O)N4CCC3)CC1 (configuration not stated)	.	0.49
COc1cccc(-c2nn3c(C(C)(C)C)nnc3s2)c1	-0.87	-1.41
CC(C)Nc1cc(N(C)CCO)c2noc3c2c1C(=O)c1ccccc1-3	-0.78	0.06

Other compounds.
SMILES	CDC25B CDK2 inh	HIV TAR-Tat
Cc1nc2nc(CNc3ccc(Br)cc3)[nH]n2c(=O)c1C	-1.27	0.36
CCCNc1nc(N2CCN(CCO)CC2)nc2c1cnn2C	.	0.78
CCCNC(=O)C1CCCN1c1nnc(N2CCCC2=O)s1 (configuration not stated)	-2.2	2.97
N#CC1=C(N)Oc2c(sc3ccccc23)C1c1cccs1 (configuration not stated)	0.53	-2.47
CC(=O)Nc1ccc2oc(C)nc2c1	-3.07	2.2
COc1ccccc1Nc1nc(C)c([N+](=O)[O-])c(Nc2ccccc2)n1	0.01	-0.66
COC(=O)CN1C(=O)CSc2ccc(S(=O)(=O)Nc3ccc(F)c(Cl)c3)cc21	.	0.86
O=S(=O)(O)CCCSCCCS(=O)(=O)O	-2.4	.
CC1CCc2c(sc(NC(=O)c3cc(-c4ccc5c(c4)OCO5)on3)c2C(N)=O)C1 (configuration not stated)	0.19	.
NC(=O)CSc1nc2nccnc2c(=O)n1Cc1ccc(Cl)cc1	-0.81	-2.66
COc1ccc(OC)c(C2CC(=O)C3=C(C2)NC(=O)CC3c2ccc3c(c2)OCO3)c1 (configuration not stated)	0.17	0.2
CCCn1cc(S(=O)(=O)c2ccccc2)c(=O)c2cc(F)c(N3CCN(C)CC3)cc21	.	-0.32
CC1(C)CC(=O)C2=C(C1)OC(N)=C(C#N)C2c1ccc2c(c1)OCO2 (configuration not stated)	-0.5	.
O=C1CC(c2ccccc2)Cc2c1cnc1[nH]n(-c3ccccc3)c(=O)c21 (configuration not stated)	-1.14	0.4
COCC(C)NC(=O)C(=O)Nc1c2c(nn1-c1cccc(Cl)c1)CSC2 (configuration not stated)	.	0.66
CCOC(=O)c1c(N)sc(C(=O)N(CC)CC)c1C	.	1.56
CCCN1CCN(CCCNC(=O)C2CCN(c3nnc(-n4c(C)ccc4C)s3)CC2)CC1	-0.99	-0.36
N#CC1=C(N)Oc2c(sc3ccccc23)C1c1ccccc1 (configuration not stated)	-0.56	.
O=C(Cn1ncc2c([nH]c3ccccc32)c1=O)Nc1ccc(Cl)cn1	.	-0.53
CCCOc1ccc(C2C(=O)N(C3CCC(C)CC3)CC(=O)N2Cc2ccco2)cc1OC (configuration not stated)	-0.86	.

Complete entries, quoted from the list. Screens in order: CDC25B CDK2 inh, HIV TAR-Tat
`CCCn1cc(S(=O)(=O)c2ccccc2)c(=O)c2cc(F)c(N3CCN(C)CC3)cc21` as listed: ., -0.32
`COC(=O)CN1C(=O)CSc2ccc(S(=O)(=O)Nc3ccc(F)c(Cl)c3)cc21` as listed: ., 0.86

Other results.
SMILES	CDC25B CDK2 inh	HIV TAR-Tat
CCOC(=O)Nc1ccc2c(c1)CCC(=O)N2C	.	1.24
Cc1ccnc2nc(NC(=O)C(C)(C)C)nn12	0.45	0.69
O=C1CC(c2c(F)cccc2Cl)c2cnn(-c3nc4ccccc4s3)c2N1 (configuration not stated)	.	1.7
COC(=O)c1cc(-c2ccc(C=NN3C(=O)C4C5C=CC(C6CC56)C4C3=O)o2)ccc1Cl (configuration not stated)	-2.68	.
Cc1cccc2cc3c(nc12)N(C(=O)NC1CCCCC1)CC3	-0.89	0.61
O=C(Cn1cnc(S(=O)(=O)N2CCCC2)c1)Nc1ccc2c(c1)OCO2	.	-0.83
Cc1csc2nc(COc3ccc(NC(=O)COc4ccc(F)cc4)cc3)cc(=O)n12	-0.64	0.75
CCCCC(=O)OC1=C(C(=O)OC)N(C)S(=O)(=O)c2ccccc21	-0.3	-0.11
CC1CC(C)CN(C(=O)c2cc3ccc4cccnc4c3[nH]2)C1 (configuration not stated)	.	1.65
CCC(C)OC(=O)COc1ccc2c(=O)c(Oc3cc(C)ccc3C)coc2c1 (configuration not stated)	-1.13	0.61
CCCOc1ccc(C2c3c(oc4ccccc4c3=O)C(=O)N2c2ccccn2)cc1OCC (configuration not stated)	-1.24	-4.61
Cc1ccc2c(c1)c1c(n2CC(O)Cn2ccnc2C)C(=O)CCC1 (configuration not stated)	-0.05	0.96
CC1CCCCN1C(=O)c1cc(-c2ccc(Br)cc2)on1 (configuration not stated)	-0.41	.
Cc1ccc(-c2nc(CNC(=O)NC3CCCCC3)c(C)o2)cc1	.	2.27
O=C(CCS(=O)(=O)c1cc(Br)cc2c1N(C(=O)C1CC1)CC2)NC1CCCCC1	2.21	1.76
O=C(CSc1nc2ccccc2c(=O)n1CC1COc2ccccc2O1)NCc1ccco1 (configuration not stated)	0.27	.
Cn1cc(C2CC(=O)N(c3ccc(O)cc3)C2=O)c2ccccc21 (configuration not stated)	0.62	1.48
CCCN1C(=O)C2C(C(=O)Nc3ccc(C)c(C)c3)C3C=CC2(O3)C1C(=O)NC1CCCC(C)C1C (configuration not stated)	-1.35	1.11
CCCCCCn1c(CN2CC(C)CC(C)C2)nc2c1c(=O)n(C)c(=O)n2C (configuration not stated)	0.29	1.44
COc1ccccc1C(O)(c1ccc(F)cc1)C(CN1CCOCC1)c1ccccc1 (configuration not stated)	1.54	0.98
CN1CCC(N(Cc2ccccn2)C(=O)Cn2c(=O)oc3ccccc32)CC1	.	0.07
COc1cc(NS(=O)(=O)c2ccc(/C=C/c3onc(C)c3[N+](=O)[O-])s2)cc(OC)c1	.	0.37
COCCCNC(=O)Nc1nnc(N2CCCCC2C)s1 (configuration not stated)	-0.64	1.38
COc1cccc(C2C(C#N)=C3N=C(N)c4ccccc4N3C3=C2C(=O)CC(C)(C)C3)c1 (configuration not stated)	-1.77	1.46

Arranged by formula weight (low to high): part of the list above
SMILES	CDC25B CDK2 inh	HIV TAR-Tat
Fc1ccc(Nc2nc(-c3ccccc3)no2)cc1	.	2.1
CC12CCC(C1)C(C)(C)C2NC(=O)c1cccs1 (configuration not stated)	-2.26	.
O=S(=O)(O)CCCSCCCS(=O)(=O)O	-2.4	.
C=CCN(c1nccs1)S(=O)(=O)c1ccc(C)cc1	-1.1	-0.21
CC1CC(C)CN(C(=O)c2cc3ccc4cccnc4c3[nH]2)C1 (configuration not stated)	.	1.65
Cc1cccc2cc3c(nc12)N(C(=O)NC1CCCCC1)CC3	-0.89	0.61
N#CC1=C(N)Oc2c(sc3ccccc23)C1c1cccs1 (configuration not stated)	0.53	-2.47
COCCCNC(=O)Nc1nnc(N2CCCCC2C)s1 (configuration not stated)	-0.64	1.38
Cn1cc(C2CC(=O)N(c3ccc(O)cc3)C2=O)c2ccccc21 (configuration not stated)	0.62	1.48
COc1ccc(NC(=O)COCC(=O)O)c(N2CCOCC2)n1	-1.8	.
Cc1ccc(-c2nc(CNC(=O)NC3CCCCC3)c(C)o2)cc1	.	2.27
Cc1ccc(Cl)cc1N1CCN(c2ncnc3nc[nH]c23)CC1	-2.48	-0.65
Cc1ccc2c(c1)c1c(n2CC(O)Cn2ccnc2C)C(=O)CCC1 (configuration not stated)	-0.05	0.96
CC(C)c1ccc(C(=O)CC2(O)C(=O)N(C(C)C)c3ccccc32)cc1 (configuration not stated)	1.37	-0.34
COCCCNC(=O)CCCN1C(=O)CCn2nc(-c3cccn3C)cc21	.	-0.19
O=C1C2ON(c3ccccc3)C(c3ccco3)C2C(=O)N1Cc1ccccc1 (configuration not stated)	-0.94	0.68
COc1ccccc1NC(=O)NC1CCN(c2nc3ccccc3s2)CC1	-0.54	0.19
CCC(C)OC(=O)COc1ccc2c(=O)c(Oc3cc(C)ccc3C)coc2c1 (configuration not stated)	-1.13	0.61
Cn1c(=O)n(Cc2ccc(F)cc2)c(=O)c2c1nc1n2CCN1c1ccc(Cl)cc1	.	1.91
O=C(CSc1nc2ccccc2c(=O)n1CC1COc2ccccc2O1)NCc1ccco1 (configuration not stated)	0.27	.
O=C(CCS(=O)(=O)c1cc(Br)cc2c1N(C(=O)C1CC1)CC2)NC1CCCCC1	2.21	1.76
O=C(C1CCCN1S(=O)(=O)c1cccc2nsnc12)N1CCN(c2ccc(Cl)cc2)CC1 (configuration not stated)	-0.39	-1.1
